# E coli growth: inhibitors of Escherichia coli growth; AID 1053175; OD600 absorbance (test concentration not listed); OD600, 23 h; hits give low values; 330,000 compounds, 0.21% hits;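 active = OD600 absorbance below the run mean of sample wells minus 3.6 SD, in any replicate, cut at about 0.56 in these data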;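 also: stock transfer was 300 nL into about 60 µL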
# AF4-AF9 inh: inhibitors of human MLL-AF4/AF9 interaction | inhibition, % at 10 µM | 350,000 compounds, 0.47% hits | P42568 | AlphaScreen, biotin-AF4 peptide binding to FLAG-AF9;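 active = every replicate reaching a set inhibition limit, whatever the replicate mean, cut at about 25% in these data; inconclusive = mean inhibition reaches that limit but some replicates miss it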;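 also: 0% = plate neutral control median and 100% = total signal loss; the record names both 10 and 1 µM as test concentration; the first replicate is given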
# Target sequence (P42568 whole entry, looked up): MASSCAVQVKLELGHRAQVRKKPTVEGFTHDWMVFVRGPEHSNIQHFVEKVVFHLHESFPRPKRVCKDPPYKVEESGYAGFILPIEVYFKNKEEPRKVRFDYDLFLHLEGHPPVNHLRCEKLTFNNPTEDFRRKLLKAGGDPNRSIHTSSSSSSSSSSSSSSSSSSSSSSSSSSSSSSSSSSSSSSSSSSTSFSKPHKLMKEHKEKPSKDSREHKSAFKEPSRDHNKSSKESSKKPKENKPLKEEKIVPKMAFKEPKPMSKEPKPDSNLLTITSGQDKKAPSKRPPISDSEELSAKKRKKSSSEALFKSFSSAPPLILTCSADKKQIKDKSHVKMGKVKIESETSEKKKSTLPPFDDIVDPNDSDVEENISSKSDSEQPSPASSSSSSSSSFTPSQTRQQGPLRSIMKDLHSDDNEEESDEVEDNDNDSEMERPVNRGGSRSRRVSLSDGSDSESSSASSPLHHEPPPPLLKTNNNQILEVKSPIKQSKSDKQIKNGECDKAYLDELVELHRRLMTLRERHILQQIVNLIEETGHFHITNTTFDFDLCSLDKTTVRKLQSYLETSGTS
# Vif A3G: HIV-1 Vif–A3G interaction blockers – biochemical, TR-FRET, GST-Vif 1-94, biotin-A3G peptide, dose response retest, primary screen (AID 1117319); 260,000 compounds, 0.57% hits; TR-FRET GST-Vif / biotin-A3G peptide binding; higher % means a stronger effect; test concentration not given here; strong numbers were not always called active; one-dose inhibition, %; IC50 in µM for titrated hits;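 active = above the screen mean plus three standard deviations and confirmed in dose response; inconclusive = results disagree or hit not tested in dose response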;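 also: Vif residues 1-94 fused to GST binding biotinylated APOBEC3G peptide 110-148; 0% = full assay without inhibitor and 100% = GST in place of GST-Vif; retest series ran down from 100 µM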
# Ecoli rRNA inh: selective bacterial rRNA inhibition in E. coli; E. coli WT GFP vs humanized-ribosome RFP mutants, fluorescence, 24 h; hits give low values; DMSO median 0, no signal -100; GFP signal change (wild-type ribosome), % (concentration not given with the values); 350,000 compounds, 1.6% hits;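 active = significant combined selectivity score with lowered wild-type GFP, culture density cut under 30%, mutant RFP and density less affected; inactive = any of these conditions unmet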; also: one replicate is shown; some compounds called inactive have numbers as strong as hits
# HNF4A DNA FP: change in binding of human HNF4 alpha to DNA. P41235. HNF4a-FITC DNA binding, fluorescence polarization, 1 h. activity change, % at 10 µM. 360,000 compounds, 0.3% hits. AID 1224865; in the data active = activity change above about 30%, passing the limit was not always enough;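 also: controls were the assay level and a saturating level of protein; the project sought stronger binding though the title names inhibitors; some compounds called inactive have numbers as strong as hits; positive values seem to mean higher polarization but the record does not say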
# FGF22 binding: binders of recombinant human FGF22 by thermal shift. Q9HCT0. SYPRO orange fluorescence; percent of sucrose octasulfate shift, DMSO zero. calls only at 9.99 µM. 340,000 compounds, 1.5% hits;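 active = melting point raised past a set limit in the mean and every replicate; inconclusive = no clear call; three in four hits are not shown here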
# Target sequence (Q9HCT0 whole entry, looked up): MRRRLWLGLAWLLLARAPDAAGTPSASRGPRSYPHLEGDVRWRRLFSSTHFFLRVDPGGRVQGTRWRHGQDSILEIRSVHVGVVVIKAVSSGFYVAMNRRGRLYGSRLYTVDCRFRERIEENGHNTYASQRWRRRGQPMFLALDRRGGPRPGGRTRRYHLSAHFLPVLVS
# ALR H2O2 inh: blocks human ALR sulfhydryl oxidase activity. inhibition, % (no concentration beside the values). 290,000 compounds, 3.8% hits. P55789. purified ALR, DTT oxidation, H2O2 HRP-luminol luminescence. AID 485317;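 active = mean and each replicate at 75% or more; inconclusive = only one of the two met; inactive = neither met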;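 also: stock transfer was 7.5 nL into about 7.5 µL; 0% = neutral wells and 100% = wells with inactivated enzyme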
# Target sequence (P55789 whole entry, looked up): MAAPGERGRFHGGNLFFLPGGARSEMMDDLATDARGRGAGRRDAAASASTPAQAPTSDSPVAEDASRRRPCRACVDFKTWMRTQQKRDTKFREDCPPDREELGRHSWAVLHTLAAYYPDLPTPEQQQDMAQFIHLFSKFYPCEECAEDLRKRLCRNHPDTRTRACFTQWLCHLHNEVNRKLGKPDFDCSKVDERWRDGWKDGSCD
# Ecoli rRNA inh OD600: recorded beside Ecoli rRNA inh, whose call it bears; OD600 change, %; measured here: OD600 growth;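 optical density of the mix in the first replicate; 0 = DMSO median and -100 = no signal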
# Ecoli rRNA inh RFP: recorded beside Ecoli rRNA inh, whose call it bears; RFP signal change, %; measured here: RFP humanized mutant strains;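 first replicate; 0 = DMSO median and -100 = no signal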
# * = called active by the depositor; i = inactive; ? = inconclusive; . = not tested or not shown; & = joins results of further samples. This is a subset; rates above refer to the full screens.
SMILES,E coli growth,AF4-AF9 inh,Vif A3G,Ecoli rRNA inh,Ecoli rRNA inh OD600,Ecoli rRNA inh RFP,HNF4A DNA FP,FGF22 binding,ALR H2O2 inh
CCCC(=O)Nc1ccc2c(c1)OC[C@H](C)N(C(=O)c1cnccn1)C[C@@H](C)[C@@H](OC)CN(C)C2=O,.,-0.6,.,1,-2,-0.4,.,i,.
O=C(O)c1cccc(NS(=O)(=O)c2cc(S(=O)(=O)c3ccc(Cl)cc3)ccc2Cl)c1,0.72,-3.3,-3%,0,-3,0.6,2.5,i,-4
COc1ccccc1C#Cc1cnc2c(c1)C(=O)N([C@@H](C)CO)C[C@@H](C)[C@@H](CN(C)C(C)=O)O2,.,-3.3,.,3,7,-1.7,.,i,.
COc1ccc(F)cc1-c1cc(NC(C)=O)c2ncc(-c3cc(OC)c(OC)c(OC)c3)n2c1,.,0.0,.,-1,0,1.7,2.4,i,.
CCN(CCO)Cc1cn[nH]c1-c1ccc(C)c(C)c1,0.67,.,1%,.,.,.,1.5,.,0
Cc1ccc(S(=O)(=O)Nc2ccc3c(c2)C(=O)N([C@@H](C)CO)C[C@@H](C)[C@H](CN(C)S(C)(=O)=O)OCCCC[C@@H](C)O3)cc1,.,-2.4,.,-4,1,-1.2,.,i,.
COc1ccc(NC(=O)N2CCCCN3[C@H](CO)[C@H](c4ccc(C#Cc5ccccn5)cc4)[C@H]3C2)cc1,.,17,.,-8,-1,1.8,.,i,.
COc1cccc(NC(=O)CN(C)C(=O)CNC(=O)c2ccc(C)s2)c1,0.69,0.2,1%,13,18,3.1,6.2,i,.
O=C(c1ccc2c(c1)OCO2)N1CC(=O)N2[C@H](C1)[C@@H](c1ccc(C#CCC3CCCC3)cc1)[C@@H]2CO,.,6.9,.,1,-4,1.1,.,i,.
CCCN1C(=O)/C(=c2\sc3nc(=O)c(Cc4ccc(C)cc4)nn3c2=O)c2ccccc21,.,-2.9,2%,-1,5,2.1,-3.0,.,32
O=S(=O)(Nc1ncccn1)c1ccc(NC(=S)NCCc2ccc(Cl)cc2)cc1,0.67,-16,8%,12,7,-2.5,0.0,i,8
Cc1ccc(S(=O)(=O)N2CCC[C@H]2C(=O)Oc2ccccc2)cc1,0.69,-3.6,-7%,-6,-20,1.5,0.5,i,.
CCOCCCNC(=O)C(Cc1ccccc1)NC(=O)c1ccco1 (stereo not drawn),0.7,.,1%,.,.,.,5.0,.,-5
O=C(Nc1cccc2c1CCCC2)c1cc(C2CCCCN2C(=O)CCCc2ccccc2)on1 (stereo not drawn),.,-0.9,.,12,1,2.4,4.2,i,.
Cc1cc(C(=O)N2CCc3ccccc32)n(-c2ccccc2)n1,0.74,-1.0,28%,3,7,0.3,-0.6,i,-1

# Random excerpt: 6 records from the list.
SMILES,E coli growth,AF4-AF9 inh,Vif A3G,Ecoli rRNA inh,Ecoli rRNA inh OD600,Ecoli rRNA inh RFP,HNF4A DNA FP,FGF22 binding,ALR H2O2 inh
COc1cccc(NC(=O)CN(C)C(=O)CNC(=O)c2ccc(C)s2)c1,0.69,0.2,1%,13,18,3.1,6.2,i,.
O=C(Nc1cccc2c1CCCC2)c1cc(C2CCCCN2C(=O)CCCc2ccccc2)on1 (stereo not drawn),.,-0.9,.,12,1,2.4,4.2,i,.
CCCC(=O)Nc1ccc2c(c1)OC[C@H](C)N(C(=O)c1cnccn1)C[C@@H](C)[C@@H](OC)CN(C)C2=O,.,-0.6,.,1,-2,-0.4,.,i,.
O=C(c1ccc2c(c1)OCO2)N1CC(=O)N2[C@H](C1)[C@@H](c1ccc(C#CCC3CCCC3)cc1)[C@@H]2CO,.,6.9,.,1,-4,1.1,.,i,.
CCN(CCO)Cc1cn[nH]c1-c1ccc(C)c(C)c1,0.67,.,1%,.,.,.,1.5,.,0
CCOCCCNC(=O)C(Cc1ccccc1)NC(=O)c1ccco1 (stereo not drawn),0.7,.,1%,.,.,.,5.0,.,-5

# (further entries)
SMILES,E coli growth,AF4-AF9 inh,Vif A3G,Ecoli rRNA inh,Ecoli rRNA inh OD600,Ecoli rRNA inh RFP,HNF4A DNA FP,FGF22 binding,ALR H2O2 inh
CCOP(=O)(OCC)c1nc(-c2ccc(Cl)cc2Cl)oc1N1CCOCC1,0.63,4.2,-9%,-18,-18,-4.1,5.4,i,.
CC(=O)C1=C(C)NC(=O)NC1c1cc(Br)ccc1OCC(N)=O (stereo not drawn),0.79,.,?,.,.,.,7.7,.,-4
O=C(NCCCN1CCOCC1)c1cccs1,0.64,.,-5%,.,.,.,-3.6,.,-7
CN(Cc1cn[nH]c1-c1ccc2c(c1)OCO2)C1CCOCC1,0.71,-37,30%,10,3,-2.2,-1.0,i,.
O=c1c2cc(-c3ccccc3)sc2ncn1-n1cccc1,0.74,.,1%,.,.,.,-0.4,.,.
CCc1ccc(CN(C)C(C)C(=O)NCc2ccccc2)cc1 (stereo not drawn),0.67,-0.5,-6%,-9,2,2.5,1.0,i,-6
C[C@@H]1CN([C@H](C)CO)C(=O)c2cc(N(C)C)ccc2O[C@@H](C)CCCCO[C@@H]1CN(C)C(=O)Nc1ccc(F)cc1,.,5.0,.,-1,7,0.6,.,i,.
CC1(C)CCC[C@@]2(C)CC=C(C(=O)O)[C@@H]3C[C@]312,0.72,-20,.,.,.,.,4.2,i,-4
COc1ccc(C(=O)Nc2nc3ccccc3s2)c(OC)c1,.,12,.,-8,8,0.4,0.1,i,12
Cc1ccc(C2(C)CC(C)(C)N(C(=O)CSc3nnc(C)s3)c3ccccc32)cc1 (stereo not drawn),0.7,.,-4%,.,.,.,-3.2,.,0
COc1ccc(NC(=O)Nc2ccc3c(c2)[C@@H]2C[C@@H](CC(=O)N[C@@H](C)c4ccccc4)O[C@@H](CO)[C@@H]2O3)cc1,.,1.0,.,-5,-1,-1.8,.,i,.
COC(=O)c1cc2c(c3c4cc(F)ccc4n(C(=O)c4ccccc4)c13)C(=O)N(Cc1ccco1)C2,.,-0.9,.,4,1,-1.4,.,i,.
O=Cc1c(N2CCOCC2)nc2ccccn2c1=O,0.65,-1.1,2%,13,11,0.5,-7.9,i,-2
NC(=O)Cn1cc(/C=N\NS(=O)(=O)c2ccccc2)c2ccccc21,.,1.0,.,20,8,3.4,2.0,i,57
COCC(=O)N1CCC(n2nccc2NC(=O)CCOc2ccccc2)CC1,0.73,-1.7,-1%,2,6,0.7,4.1,i,-8
COc1cc(/C=C\C(=O)O)cc(S(=O)(=O)N2CCCCCC2)c1OC,0.71,2.0,3%,2,0,-2.2,0.6,i,.
Cc1cc2oc(=O)cc(CN3CCN(S(=O)(=O)c4cccs4)CC3)c2cc1C(C)C,0.77,.,-15%,.,.,.,-0.1,.,-3
COc1ccc(OC)c(CNc2c(C=O)c(=O)[nH]c3ccccc23)c1,0.62,5.4,.,-11,-10,-1.0,-0.4,i,-9
CC(C)NC(=O)Nc1ccc2c(c1)C(=O)N([C@H](C)CO)C[C@H](C)[C@@H](CN(C)C(=O)NC1CCCCC1)OCCCC[C@@H](C)O2,.,-1.2,.,2,2,1.5,.,i,.
Cc1ccc(Cl)cc1N1CCN(C(=O)c2ccc(NC3=NC4CS(=O)(=O)CC4S3)cc2)CC1 (stereo not drawn),0.68,-2.0,.,2,6,-3.3,-4.8,i,-3
CCn1c(=S)sc2c(=O)n(CC(=O)NC(C)CCc3ccccc3)c(C)nc21 (stereo not drawn),0.68,-3.6,.,-2,-6,-1.4,-1.6,i,-2
NC(=S)N/N=C/c1ccc(-c2cc(Cl)ccc2Cl)o1,.,-2.6,31%,-21*,-2.7*,5.9*,28,i,-6
COc1ccc(NC(=O)Nc2cccc3c2O[C@@H](CN(C)C(=O)NC2CCCCC2)[C@H](C)CN([C@H](C)CO)C3=O)cc1,.,-3.0,.,-4,3,-0.1,.,i,.
CC(C)c1ccc(NC2CCCN(C(=O)CN3CCCCC3=O)C2)cc1 (stereo not drawn),.,-2.6,.,5,4,1.4,-1.7,i,.
CNS(=O)(=O)c1cc2c3c(cccc3c1)C(=O)NC2=O,0.65,-1.5,-3%,14,9,1.2,1.5,i,1
CC(C)OC(=O)c1cccc2c1C(=O)c1ccccc1-2,0.66,.,14%,-5,5,0.1,-1.4,i,-14
CCC1CN(C(=O)N2CCC(C(=O)NCc3cccc(F)c3)CC2)c2ccccc2O1 (stereo not drawn),0.68,3.2,.,-18,-18,1.8,4.6,i,-17
Cc1ccc(SCc2ccc(C(=O)Nc3cccc([N+](=O)[O-])c3)cc2)cc1,0.73,.,-1%,.,.,.,23,.,-8
NS(=O)(=O)c1ccc(CCNC(=O)CSc2ccc3ccccc3c2)cc1,0.71,-1.2,1%,.,.,.,-2.5,i,99*
CC(C)NC(=O)Nc1ccc2c(c1)CC(=O)N([C@@H](C)CO)C[C@H](C)[C@H](CN(C)C(=O)Nc1ccc3c(c1)OCO3)O2,.,-3.8,.,1,5,-1.4,.,i,.
Cc1ccc(NC(=O)N/C=C/c2ccco2)cc1,0.63,.,?,.,.,.,3.9,.,7
NC(=O)c1c(NC(=O)c2cccnc2)sc2c1CCCC2,0.7,0.5,.,21,8,4.2,-1.8,i,3
c1nc(NCC2CCCO2)c2[nH]cnc2n1 (stereo not drawn),0.72,.,2%,.,.,.,1.0,.,-11
O=C(NCc1ccco1)c1cc(-c2ccccc2)nc2ccccc12,0.74,.,0%,.,.,.,-1.6,.,-3
CN(C)C(=O)c1cn(-c2ccccc2)nc1-c1cc2ccccc2o1,0.67,-1.6,7%,-20,-15,-0.5,-2.4,i,-7
CO[C@@H](CN(C)C(=O)c1cnccn1)[C@@H](C)CN([C@H](C)CO)S(=O)(=O)c1ccc(Cl)cc1,.,0.6,.,2,-9,1.1,.,i,.
C/C(N)=C(/C#N)C(=O)COC(=O)c1ccccc1O,0.67,.,5%,.,.,.,1.4,.,-5
O=C(CCn1c(=O)c2cccn2c2cccnc21)N1CCN(c2cccc(Cl)c2)CC1,0.7,.,.,.,.,.,0.3,.,3
CCC/C(=N\NC(=O)c1cccc(C)c1)c1ccccc1,.,1.0,-9%,10,-8,4.6,4.2,i,1
C[C@@H]1CN([C@H](C)CO)C(=O)c2cc(NC(=O)c3ccccc3)ccc2O[C@@H](C)CCCCO[C@H]1CN(C)C(=O)Nc1ccc2c(c1)OCO2,.,-0.2,.,-2,10,1.4,.,i,.
COc1ccccc1CCNC(=O)c1ccccc1SCC(=O)N1CCCC1,0.64,-4.3,11%,-9,-15,-3.2,7.0,i,-8
CC(=O)Nc1ccc(S(=O)(=O)NNC(=O)c2cccc(Cl)c2)cc1,0.73,-1.1,.,.,.,.,0.1,i,99*
CCC(CC)c1nnc(NC(=O)c2cccnc2SC)s1,0.7,0.7,-5%,-30,-26,-3.4,-4.3,i,22
Cc1ccc(-c2csc(NCCc3nc4cc(Cl)c(Cl)cc4n3CCCO)n2)cc1,0.7,1.2,.,-8,-7,3.8,0.5,i,31
NC(=O)CSc1nnc(-c2cccc(S(=O)(=O)N3CCOCC3)c2)n1C1CCCCCC1,0.8,.,2%&17%,.,.,.,-0.6,.,.
O=C(NCc1nnnn1-c1ccc(F)cc1)C1CC(=O)N(c2ccc(F)cc2)C1 (stereo not drawn),0.63,1.6,4%,3,6,2.4,1.0,i,3

# Screening data: PubChem, several laboratories
